A1 apoptosis 2 = compounds inhibiting A1, read as caspase activation; MEF A1-2A-BIM cells, caspase-Glo luminescence, 3 h; percent of clofoctol response, DMSO zero; caspase activation, % (concentration not given with the values); 24,000 tested, under 10 active; AID 2465; in the data active = caspase activation above about 5.9%;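 note: wells of about 30 µL received 50 nL stock; the first replicate is given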
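system = A1-2A-BIM-expressing MEF cells | quantity = 2500 MEF cells/well | dosing = 50 nL compound per well, pinned | schedule = overnight cell settling, then 3 h compound exposure, 37 °C | signal = luminescence from DEVD-luciferin Caspase-Glo reagent, 1:1 in 50 mM HEPES, 1 h RT | read-out = Caspase-3/7 activation, seen as rise in luminescence signal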
* marks the source's active call; other numbers are inactive results. The list is partial (hit frequency here may not be typical).

SMILES | A1 apoptosis 2
Cc1ccc(S(=O)(=O)Nc2ccc3c(c2)C(=O)N([C@H](C)CO)C[C@H](C)[C@H](CN(C)Cc2ccccc2)OCCCC[C@H](C)O3)cc1 | 0.6
CC(C)NC(=O)[C@@]1(C)c2ccccc2C(=O)N(Cc2ccccc2)[C@H]1c1ccc(CO)cc1 | -0.2
COc1ccc(NC(=O)N(C)C[C@H]2Oc3ccc(NS(=O)(=O)c4ccc(Cl)cc4)cc3C(=O)N([C@H](C)CO)C[C@H]2C)cc1 | 0.8
C[C@H](CO)N1C[C@H](C)[C@H](CN(C)C(=O)NC2CCCCC2)Oc2ncc(/C=C/c3ccccc3)cc2C1=O | -0.3
C[C@@H]1CN([C@@H](C)CO)C(=O)c2cc(NC(=O)c3ccncc3)ccc2O[C@@H](C)CCCCO[C@@H]1CN(C)Cc1ccc(C(F)(F)F)cc1 | -1.5
C[C@@H]1CN([C@@H](C)CO)C(=O)c2cc(NC(=O)C3CC3)ccc2O[C@H]1CN(C)Cc1ccc(C(F)(F)F)cc1 | -0.3
C[C@H]1CN([C@@H](C)CO)C(=O)c2cccc(NS(=O)(=O)c3ccccc3)c2O[C@H]1CN(C)Cc1ccc(Cl)c(Cl)c1 | -1.3
COC(=O)CCCCCCC(=O)N/N=C/c1ccc(N(C)CCO)cc1 | -0.4

(more compounds)
SMILES | A1 apoptosis 2
C[C@@H]1CN([C@@H](C)CO)C(=O)Cc2cc(NC(=O)Nc3ccc4c(c3)OCO4)ccc2O[C@@H]1CN(C)S(C)(=O)=O | 0.3
COc1ccc(NC(=O)Nc2ccc3c(c2)C(=O)N([C@@H](C)CO)C[C@@H](C)[C@@H](CN(C)C(=O)Nc2ccc(OC)cc2)OCCCC[C@@H](C)O3)cc1 | -0.5
CC(C)NC(=O)Nc1ccc2c(c1)CC(=O)N([C@H](C)CO)C[C@H](C)[C@H](CN(C)Cc1ccc(C(=O)O)cc1)O2 | 1.4
C[C@@H]1CN([C@@H](C)CO)C(=O)c2cc(NS(=O)(=O)c3cn(C)cn3)ccc2O[C@H]1CN(C)C(=O)Nc1ccc(F)cc1 | -0.3
Cc1noc(C)c1S(=O)(=O)N(C)C[C@@H]1Oc2ccc(NC(=O)NC(C)C)cc2CC(=O)N([C@@H](C)CO)C[C@H]1C | -0.6
Cc1noc(C)c1NC(=O)Nc1ccc2c(c1)CC(=O)N([C@@H](C)CO)C[C@@H](C)[C@H](CN(C)S(=O)(=O)c1cccs1)O2 | 1.2
C[C@H](CO)N1C[C@H](C)[C@@H](CN(C)Cc2ccc(C(=O)Nc3ccccc3N)cc2)Oc2ccc(NC(=O)Nc3ccc(C(F)(F)F)cc3)cc2C1=O | 0.3
C[C@@H]1CN([C@H](C)CO)C(=O)CCCn2cc(nn2)CO[C@@H]1CN(C)C(=O)CCC(F)(F)F | 0.8

Part of the list above in order of count of non-hydrogen atoms, lowest first.
SMILES | A1 apoptosis 2
C[C@@H]1CN([C@H](C)CO)C(=O)CCCn2cc(nn2)CO[C@@H]1CN(C)C(=O)CCC(F)(F)F | 0.8
C[C@@H]1CN([C@@H](C)CO)C(=O)Cc2cc(NC(=O)Nc3ccc4c(c3)OCO4)ccc2O[C@@H]1CN(C)S(C)(=O)=O | 0.3
COc1ccc(NC(=O)Nc2ccc3c(c2)C(=O)N([C@@H](C)CO)C[C@@H](C)[C@@H](CN(C)C(=O)Nc2ccc(OC)cc2)OCCCC[C@@H](C)O3)cc1 | -0.5

(list continues)
SMILES | A1 apoptosis 2
C[C@@H]1CN([C@H](C)CO)C(=O)Cc2cc(NS(=O)(=O)c3ccc(F)cc3)ccc2O[C@@H]1CN(C)C(=O)Nc1ccc2c(c1)OCO2 | -1.9
C[C@@H]1CN([C@H](C)CO)C(=O)c2cc(NS(C)(=O)=O)ccc2O[C@@H](C)CCCCO[C@@H]1CN(C)C(=O)C1CCCCC1 | 0.3
Cc1cc(C(=O)Nc2cccc3c2O[C@@H](CN(C)S(=O)(=O)c2c(C)noc2C)[C@@H](C)CN([C@H](C)CO)C3=O)n(C)n1 | -0.4
Cc1noc(C)c1S(=O)(=O)Nc1ccc2c(c1)C(=O)N([C@@H](C)CO)C[C@@H](C)[C@@H](CN(C)S(=O)(=O)c1ccc(Cl)cc1)O2 | 0.2
C[C@@H]1CN([C@@H](C)CO)C(=O)c2cccc(NS(=O)(=O)c3ccccc3)c2O[C@H]1CN(C)Cc1ccc(Cl)c(Cl)c1 | -0.7
O=C(N/N=C/c1cccnc1)c1ccccc1O | -4.1
Cc1ccc(S(=O)(=O)N(C)C[C@H]2OCCCC[C@H](C)Oc3ccc(NS(=O)(=O)c4ccc(Cl)cc4)cc3C(=O)N([C@H](C)CO)C[C@H]2C)cc1 | -0.4
O=C(NO)c1ccc(C(=O)N/N=C/c2ccc(F)cc2)cc1 | 1.2

Remaining list, next part
SMILES | A1 apoptosis 2
C[C@H](CO)N1C[C@H](C)[C@H](CN(C)Cc2ccc(Cl)c(Cl)c2)Oc2ccc(NS(=O)(=O)c3ccc(F)cc3)cc2C1=O | -0.7
CN(CCO)c1ccc(/C=N/NC(=O)c2ccccn2)cc1 | -12
C[C@@H]1CN([C@@H](C)CO)C(=O)Cc2cc(NC(=O)Cc3ccccc3)ccc2O[C@H]1CN(C)C(=O)Nc1ccc(F)cc1 | 0.4
C[C@H]1CN([C@@H](C)CO)C(=O)Cc2cc(NC(=O)Cc3ccccc3)ccc2O[C@@H]1CN(C)C(=O)NC1CCCCC1 | -1.2
Cc1noc(C)c1NC(=O)Nc1cccc2c1O[C@H](CN(C)S(=O)(=O)c1ccc(Cl)cc1)[C@@H](C)CN([C@@H](C)CO)C2=O | -0.9
C[C@H]1CN([C@@H](C)CO)C(=O)c2cccc(NS(=O)(=O)c3ccccc3)c2O[C@@H]1CN(C)Cc1ccc(-c2ccccc2)cc1 | 1.9
COc1ccc(S(=O)(=O)Nc2cccc3c2O[C@H](CN(C)S(=O)(=O)c2cn(C)cn2)[C@@H](C)CN([C@H](C)CO)C3=O)cc1 | -0.2
C#Cc1ccc([C@H]2C=C(C(=O)NCc3ccccc3)O[C@@H](OCC)[C@@H]2CCCO)cc1 | -0.2

Going on with the list:
SMILES | A1 apoptosis 2
Cc1noc(C)c1S(=O)(=O)N(C)C[C@H]1OCCCC[C@H](C)Oc2ccc(NC(=O)CCC(F)(F)F)cc2C(=O)N([C@@H](C)CO)C[C@@H]1C | 1.4
CC(C)NC(=O)Nc1cccc2c1O[C@H](CN(C)Cc1ccc(C(F)(F)F)cc1)[C@H](C)CN([C@@H](C)CO)C2=O | -0.1
C[C@@H]1CN([C@@H](C)CO)C(=O)c2cccc(NC(=O)Nc3ccc4c(c3)OCO4)c2O[C@H]1CN(C)Cc1ccc2c(c1)OCO2 | -0.8
C[C@H](CO)N1C[C@H](C)[C@H](CN(C)C(=O)Nc2ccc(F)cc2)Oc2ccc(NC(=O)Cc3ccccc3)cc2CC1=O | 0.1
C[C@@H]1CN([C@@H](C)CO)C(=O)c2cc(NS(C)(=O)=O)ccc2O[C@@H](C)CCCCO[C@@H]1CN(C)C(=O)Cc1ccccc1 | -0.4
C[C@@H]1CN([C@H](C)CO)C(=O)c2cccc(NS(=O)(=O)c3ccc(Cl)cc3)c2O[C@@H]1CN(C)C(=O)Nc1ccc2c(c1)OCO2 | 0.6
Cc1ccc(S(=O)(=O)N(C)C[C@H]2OCCCC[C@H](C)Oc3ccc(NC(=O)CCCN(C)C)cc3C(=O)N([C@@H](C)CO)C[C@H]2C)cc1 | -0.9
C[C@@H]1CN([C@H](C)CO)C(=O)CCCn2cc(nn2)CO[C@@H]1CN(C)C(=O)Nc1cccc(Oc2ccccn2)c1 | -1.3

(next part)
SMILES | A1 apoptosis 2
C[C@H](CO)N1C[C@H](C)[C@@H](CN(C)C(=O)Nc2cccc3ccccc23)Oc2ccc(NC(=O)Nc3ccc4c(c3)OCO4)cc2C1=O | 1.1
C[C@@H]1CN([C@H](C)CO)C(=O)c2cc(NC(=O)Nc3ccc(F)cc3)ccc2O[C@@H]1CN(C)C(=O)NC1CCCCC1 | 0.4
C[C@H]1CN([C@@H](C)CO)C(=O)c2cc(NS(=O)(=O)c3ccc(Cl)cc3)ccc2O[C@H]1CN(C)Cc1ccc(Cl)c(Cl)c1 | 0.4
C[C@@H]1CN([C@H](C)CO)C(=O)c2cccc(NS(=O)(=O)c3ccc(Cl)cc3)c2O[C@H]1CN(C)C(=O)Nc1ccc(C(F)(F)F)cc1 | 0.9
COc1ccc(S(=O)(=O)Nc2ccc3c(c2)C(=O)N([C@@H](C)CO)C[C@H](C)[C@@H](CN(C)C(=O)Nc2ccc(C(F)(F)F)cc2)O3)cc1 | -0.9
COc1ccc(NC(=O)N(C)C[C@H]2Oc3ccc(NC(=O)C4CC4)cc3CC(=O)N([C@@H](C)CO)C[C@@H]2C)cc1 | 1.2
C[C@H]1CN([C@@H](C)CO)C(=O)c2cc(NC(=O)c3ccncc3)ccc2O[C@H]1CN(C)C(=O)Nc1cccc2ccccc12 | 0.4
C[C@H]1CN([C@@H](C)CO)C(=O)Cc2cc(NC(=O)NC3CCCCC3)ccc2O[C@@H]1CN(C)Cc1ccc2c(c1)OCO2 | 0.4

Quoted at random: 2 entries already listed, in no set order.
SMILES | A1 apoptosis 2
C[C@H](CO)N1C[C@H](C)[C@@H](CN(C)Cc2ccc(C(=O)Nc3ccccc3N)cc2)Oc2ccc(NC(=O)Nc3ccc(C(F)(F)F)cc3)cc2C1=O | 0.3
C#Cc1ccc([C@H]2C=C(C(=O)NCc3ccccc3)O[C@@H](OCC)[C@@H]2CCCO)cc1 | -0.2

Going on with the list:
SMILES | A1 apoptosis 2
Cc1noc(C)c1S(=O)(=O)Nc1ccc2c(c1)CC(=O)N([C@@H](C)CO)C[C@@H](C)[C@@H](CN(C)Cc1ccc(C(=O)O)cc1)O2 | -0.7
C[C@@H]1CCCCO[C@H](CN(C)S(=O)(=O)c2cccs2)[C@@H](C)CN([C@@H](C)CO)C(=O)c2cc(NC(=O)CCC(F)(F)F)ccc2O1 | 0.8
C[C@H](CO)N1C[C@H](C)[C@@H](CN(C)C(=O)Nc2ccccc2)Oc2ccc(NC(=O)NC3CCCCC3)cc2C1=O | -0.3
COC(=O)CCCCCCC(=O)N/N=C/c1cccc(B(O)O)c1 | 0.1
Cc1noc(C)c1S(=O)(=O)N(C)C[C@H]1Oc2ccc(NS(=O)(=O)c3ccc(F)cc3)cc2C(=O)N([C@H](C)CO)C[C@H]1C | 0.2
C[C@@H]1CN([C@@H](C)CO)C(=O)CCCn2nncc2CO[C@H]1CN(C)S(=O)(=O)c1ccc(-c2ccccc2)cc1 | 1.8
Cc1noc(C)c1NC(=O)Nc1ccc2c(c1)C(=O)N([C@@H](C)CO)C[C@H](C)[C@@H](CN(C)C(=O)Nc1ccc(F)cc1)O2 | 1.2
COc1ccc(S(=O)(=O)N(C)C[C@H]2Oc3ccc(NC(=O)Nc4c(C)noc4C)cc3CC(=O)N([C@@H](C)CO)C[C@@H]2C)cc1 | 0.9

Next structures
SMILES | A1 apoptosis 2
Cc1ccc(S(=O)(=O)N(C)C[C@@H]2Oc3ccc(NS(=O)(=O)c4cccs4)cc3C(=O)N([C@@H](C)CO)C[C@@H]2C)cc1 | -1.0
Cc1noc(C)c1NC(=O)Nc1cccc2c1O[C@H](CN(C)C(=O)Nc1ccc(F)cc1)[C@@H](C)CN([C@H](C)CO)C2=O | -1.3
CC(C)NC(=O)N(C)C[C@H]1OCCCC[C@@H](C)Oc2ccc(NS(=O)(=O)c3ccc(F)cc3)cc2C(=O)N([C@H](C)CO)C[C@H]1C | 0.0
COc1ccc(NC(=O)Nc2ccc3c(c2)C(=O)N([C@@H](C)CO)C[C@H](C)[C@H](CN(C)S(=O)(=O)c2cn(C)cn2)O3)cc1 | -0.3
Cc1ccc(S(=O)(=O)N(C)C[C@H]2OCCCC[C@H](C)Oc3ccc(NS(=O)(=O)c4c(C)noc4C)cc3C(=O)N([C@@H](C)CO)C[C@@H]2C)cc1 | 0.9
COC(=O)[C@H](Cc1ccccc1)N1CC(C)(OC)O[C@@H](Cc2ccccc2)[C@H]1/C=C/C1CC1 (some centres not stated) | 0.3
C[C@H](CO)N1C[C@H](C)[C@H](CN(C)C(=O)Nc2ccc3c(c2)OCO3)Oc2c(NC(=O)NC3CCCCC3)cccc2C1=O | -1.0
CC(C)NC(=O)Nc1ccc2c(c1)C(=O)N([C@H](C)CO)C[C@H](C)[C@@H](CN(C)C(=O)NC(C)C)OCCCC[C@@H](C)O2 | 0.3

Later entries:
SMILES | A1 apoptosis 2
C[C@H]1CN([C@@H](C)CO)C(=O)c2cc(NC(=O)NC3CCCCC3)ccc2O[C@H]1CN(C)Cc1ccncc1 | 0.3
C[C@H]1CN([C@@H](C)CO)C(=O)c2cc(NC(=O)Cn3cnnn3)ccc2O[C@H]1CN(C)Cc1ccc(C(=O)O)cc1 | 0.1
C[C@H]1CN([C@@H](C)CO)C(=O)c2cc(NS(=O)(=O)c3ccc(Cl)cc3)ccc2O[C@H]1CN(C)Cc1ccccc1 | 1.4
CNC[C@H]1OCCCC[C@@H](C)Oc2ccc(NC(=O)Nc3ccc4c(c3)OCO4)cc2C(=O)N([C@H](C)CO)C[C@H]1C | 0.1
CNC[C@@H]1OCCCC[C@@H](C)Oc2ccc(NC(=O)Nc3c(C)noc3C)cc2C(=O)N([C@H](C)CO)C[C@H]1C | -0.2
C[C@H]1CN([C@@H](C)CO)C(=O)c2cc(NS(=O)(=O)c3cccs3)ccc2O[C@H]1CN(C)C(=O)NC1CCCCC1 | 0.5
C[C@H]1CN([C@@H](C)CO)C(=O)Cc2cc(NC(=O)Cc3ccccc3)ccc2O[C@H]1CN(C)C | 0.9
C[C@H]1CCCCO[C@H](CN(C)S(=O)(=O)c2cn(C)cn2)[C@@H](C)CN([C@@H](C)CO)C(=O)c2cc(NS(=O)(=O)c3cn(C)cn3)ccc2O1 | -1.4
